NPYLR7 ag = agonists of mosquito NPYLR7 receptor, primary screen, cell-based, Aedes aegypti, calcium fluorescence, mosquito biting behavior; HEK293T NPYLR7/Galpha15, GCaMP6s calcium fluorescence; activation, % at 10 µM; actives 0.15% (n = 270,000); in the data active means activation above about 40%;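 further: 0% = vehicle and 100% = reference agonist at the receptor; some compounds past the cut are filed as inactive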
NPYLR7 ag max-min = recorded beside NPYLR7 ag, whose call it bears; activation, %; measured here: Max-Min RFU normalised activation; some inactives read as strong as hits;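 span of the calcium signal over five minutes; 0% = vehicle and 100% = native peptide agonist; compound fluorescence can raise it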
An asterisk follows results filed as active; & = joins results of further samples.

SMILES | NPYLR7 ag | NPYLR7 ag max-min
O=S(=O)(NC1C2COCC1CN(CC1CCOCC1)C2)c1ccccc1 (centres undefined) | 11.2 | -1.3
Cc1ccsc1CN(Cc1ccc(C(O)(c2cccc(F)c2)c2cccc(F)c2)o1)C1CC1 | -10.5 | -6.2
COc1cc(/C=C2\SC(=S)N(CC(=O)O)C2=O)ccc1O | 56.0 | 38.8
CCCc1nc(NCc2ccccc2-n2ccnc2)c2cnn(C)c2n1 | 25.1 | 8.7
O=c1[nH]c(CNCc2ccco2)nc2scc(-c3ccccc3F)c12 | 35.4 | 32.8
CC(C)CC(=O)N1CCC2(CC1)SCCN2C(=O)c1ccccc1F | -5.2 | 5.2
CC(C)(N)c1cn(CC2CCCN(c3ccnc4cc(Cl)ccc34)C2)nn1 (centres undefined) | -0.6 | -2.6
CC1CCN(c2ccc(NC(=O)c3ccc4nncn4c3)cc2)C1 (centres undefined) | 9.0 | 6.7
O=S(=O)(NCCCNC1CCCCC1)c1ccccc1F | 2.1 | 1.9
CC(=O)Nc1ccc(S(=O)(=O)N2CCC3(CC2)NC(=O)c2c(Cl)cccc2N3)cc1 | 1.3 | 7.5
O=C(CN1C(=O)[C@@H]2CCCN2C(=O)c2ccccc21)N(Cc1ccccc1)C[C@@H]1CCC[C@@H]1O | -2.3 | 4.3
Clc1ccc(CSc2nnc(-c3ccc4c(c3)OCO4)o2)cc1 | -0.6 | -4.9
COCCOCC(=O)Nc1ccc2[nH]cc(CCN3CCN(c4cccc(C(F)(F)F)c4)CC3)c2c1 | 15.3 | 16.8
CC(=O)Nc1cccc(C(=O)N2CCN(Cc3ccc(-c4noc(CC(C)C)n4)cc3)CC2)c1 | 8.4 | 15.1
CC(CNC(=O)Cc1ccccc1O)Oc1ccccc1F (centres undefined) | 10.1 | 9.1
Cc1cc(-c2nc(CCc3ccccc3)nn2-c2ccccn2)cc(=O)[nH]1 | 24.5 | 7.1
CCOC(=O)c1cc(-c2ccc(N3CCN(C(=O)COc4ccccc4)CC3)cc2)n(-c2ccc(OC)cc2)n1 | 4.2 | -1.1
COc1ccc(CN(C)C(=O)c2ccc(-n3cnnc3)cc2)c2cccnc12 | 4.1 | 4.3
CCOC1=CC(=C2C=CC(=[N+](C)C)C=C2)C=C(OCC)c2c(C)oc(C)c21 | -13.7 | -20.0
CCOC(=O)c1c(NC(=O)c2cnn3c(C(F)(F)F)cc(-c4ccc(C)cc4)nc23)sc2c1CCCC2 | -11.1 | 1.9

Single entries from the results shown:
O=C(CN1C(=O)[C@@H]2CCCN2C(=O)c2ccccc21)N(Cc1ccccc1)C[C@@H]1CCC[C@@H]1O in NPYLR7 ag max-min shows 4.3
CC(=O)Nc1cccc(C(=O)N2CCN(Cc3ccc(-c4noc(CC(C)C)n4)cc3)CC2)c1 in NPYLR7 ag shows 8.4

Next structures:
SMILES | NPYLR7 ag | NPYLR7 ag max-min
Cc1ccccc1N1CCn2c1nc1c2c(=O)n(CCC(C)C)c(=O)n1C | -0.6 | -2.0
Cc1cc(I)ccc1NC(=O)NC(C)CCO (centres undefined) | -0.8 | -1.6
O=C(CCCSc1ccc(NC(=O)C2CC2)nn1)NCc1ccccc1Cl | -0.6 | -1.2
CCC(C)C(N)C(N)=O (centres undefined) | 3.2 | 4.4
Clc1ccc(-c2noc(CSc3nnc4n3CCCCC4)n2)cc1 | -6.8 | -0.3
Nc1nc(OCC(O)CO)c2n[nH]nc2n1 (centres undefined) | 3.3 | 6.3
Cc1cc(F)ccc1N1CCCC(NC(=O)c2ccc[nH]2)C1=O (centres undefined) | 7.1 | 0.7
Cc1ccccc1CSc1ncc(CO)n1CC(=O)NC1CC1 | 7.1 | 1.5
COc1ccc(C(=O)c2c(N)c(-c3nc(-c4ccccc4OC)cs3)c3ccccn23)cc1 | -0.6 | 28.3
C=CCOc1ccccc1CNn1nnnc1N | -14.7 | -20.7
O=[N+]([O-])c1ccc(C(O)C(CO)NP2(=O)C=C(c3ccccc3)SC(c3ccccc3)=C2)cc1 (centres undefined) | 9.0 | 16.9
CCC(C)n1c(C)c(C)n2c3c(=O)n(CC(=O)C(C)(C)C)c(=O)n(C)c3nc12 (centres undefined) | -6.1 | -6.7
COc1ccc(C(CC(=O)NCc2ccc(F)cc2)c2cn(C)c3ccccc23)cc1 (centres undefined) | 28.2 | 23.9
Cc1[nH]nc2c1C(c1ccc([N+](=O)[O-])cc1)CC(=O)N2 (centres undefined) | 9.2 | 8.0
CCOC(=O)N1CCN(C(=O)c2cc(-c3ccccc3)n(-c3ccc4c(c3)OCO4)c2C)CC1 | -0.2 | 4.8
O=[N+]([O-])c1cc(S(=O)(=O)Nc2ccc(Cl)c(S(=O)(=O)N3CCOCC3)c2)ccc1Cl | -1.3 | -1.2
Cc1ccc(NC(=O)N(Cc2cccs2)CC2CCCO2)cc1 (centres undefined) | 3.9 | 2.1
CNC(=O)C1CCN(C(=O)c2ccccc2C(=O)c2ccc(F)cc2)CC1 | 12.8 | 9.7
CCOC(=O)Cc1c(C)nc2ncnn2c1N1CCN(S(=O)(=O)c2cn(C)cn2)CC1 | 14.6 | 1.1
CN(C)c1cccc(NP2(=O)C=C(c3ccccc3)OC(c3ccccc3)=C2)c1 | 3.9 | -0.7

Next part.
Results follow in this order: NPYLR7 ag	NPYLR7 ag max-min
> NC(=O)c1csc(NC(=O)c2cnc(-c3ccccc3F)s2)n1
  -6.1	-7.5
> O=C(c1coc(COc2cccc3cccnc23)n1)N1CC[C@@H]2CCCC[C@H]2C1
  -4.6	-8.1
> COc1ccccc1Nc1nc(N2CCCC(C)C2)nc(N)c1[N+](=O)[O-] (centres undefined)
  9.3	7.6
> Cc1ccc(CN2CCC(n3cc(-c4cccnc4)nn3)CC2)s1
  5.1	1.0
> COc1ccc(C=C2N=C(c3ccccc3I)OC2=O)c(OC)c1OC
  -8.2	-14.7
> COc1ccc(C(=O)N2CCC3(CC2)CC(C(=O)O)N(C)C3)c(OC)n1 (centres undefined)
  4.8	-3.3
> CCN1C(=O)NC(c2ccc(Cl)cc2Cl)C2=C1CN(CCC(=O)N1CCC(Cc3ccccc3)CC1)C2=O (centres undefined)
  -2.9	-2.6
> COCCCN1C(=O)C(Cl)=C(Nc2ccccc2)C1=O
  9.8	0.6
> CCN1CCc2c(sc(NC(=O)c3ccccc3)c2-c2nc3ccccc3s2)C1
  90.5*	85.9*
> CCCn1nc(C(=O)N2CC3C(C2)C3(C)C)ccc1=O (centres undefined)
  2.7	-0.3
> CCN1CCN(C(=O)c2cnn(-c3ccc(Cl)cc3)c2C(C)C)CC1
  21.4	31.9
> Clc1ccc2nc(N3CCCCC3)[nH]c2c1
  -2.1	-1.8
> CCOC(=O)C1(CCOc2ccccc2)CCN(S(=O)(=O)Cc2ccccc2)CC1
  1.6	-0.2
> Cc1cccc(C)c1NC(=O)c1c(-c2ccccc2)noc1C
  -2.7	-3.7
> COc1ccc(F)c(-c2ccc(CNC3CC3)cc2)c1
  1.7	-0.4
> COC(=O)c1ccc(/C=C(\C#N)c2nc(-c3ccc(C)cc3)c(NC(C)=O)s2)cc1
  6.7	11.9
> O=C1NCC2(CCCN(C(=O)CCCOCc3ccccc3)C2)O1 (centres undefined)
  -1.3	-1.7
> CC(C)(C)C(=O)N1CCC(C(=O)Nc2cccc3c2CCCC3)CC1
  -2.1	-0.3
> CN(C)C(=O)c1nn(CC2CCCCC2)c2c1CC(NCc1cc(-c3ccccc3)on1)CC2 (centres undefined)
  14.6	2.0
> Nc1nnc(C(NC(=O)c2cccc3ccnn23)c2ccccc2)s1 (centres undefined)
  0.5	-5.2
> N#Cc1cc2c(=O)n3ccccc3nc2n(Cc2ccco2)c1=N
  -1.0	-2.8
> COc1cccc(NC(=O)Nc2ccc(Nc3ccc(-n4ccc(C)n4)nn3)cc2)c1
  -2.2	-2.0
> Cc1cccc(C(=O)N(Cc2ccco2)Cc2cc(NC(=O)c3ccco3)ccc2N(C)C)c1
  -0.2	12.3
> CC(C)Cc1cnc2c(c1SCc1cccnc1)c(=O)n(C)c(=O)n2C
  4.3	3.3
> CCc1ccccc1C(=O)N1CCCC(c2ccn[nH]2)C1 (centres undefined)
  4.6	3.4
> CO[C@@]1(NC(=O)Cc2cccs2)C(=O)N2C(C(=O)O)=C(COC(N)=O)CS[C@@H]21
  -8.9&-4.7&2.1&-0.5	-16.3&-4.3&-3.8&-5.1
> CCC1CN(C(=O)C2CCN(C(=O)N3CCCC3)CC2)C(CC)CN1Cc1ccccc1 (centres undefined)
  1.5	-0.7
> O=S(=O)(NCCOc1ccc2nnc(-c3ccccc3)n2n1)c1ccc(Cl)s1
  8.0	4.2
> O=C(NC(=O)N1CCC2(CC1)NCCc1c2[nH]c2ccc(OCc3ccccc3)cc12)c1ccccc1
  13.6	14.6
> CCn1c(C2CCN(C(=O)CCc3ccc4c(c3)OCO4)CC2)n[nH]c1=O
  4.2	2.6
> COc1ccc(NC(=O)CCc2csc(NC(=O)c3ccc[nH]c3=O)n2)cc1OC
  -10.8	-13.7
> O=C(CCC1CCCC1)N1CCN(C(c2ccccc2)c2ccccc2)CC1
  -4.2	-11.9
> CC(C)NC(=O)[C@@H]1C[C@@H](N)CN1Cc1cnc(-c2ccccn2)nc1
  0.6	-2.1
> O=c1nc(/C=C/c2ccc(Br)cc2)cc(C(F)(F)F)[nH]1
  12.5	6.2
> CC(=O)OC1CC2CCC1(C)C2(C)C (centres undefined)
  6.6	13.1
> CCOC(=O)C1CCN(c2nc3ccccc3n3c(=O)n(CC(=O)Nc4ccc(C)cc4)nc23)CC1
  -8.2	-8.3
> CC12CN(C(C)(C)C)CC(C)(CN(C(C)(C)C)C1)C2=O
  -0.3	1.8
> c1ccc(N2CCCN(Cc3ccc(C4CCCO4)s3)CC2)cc1 (centres undefined)
  3.3	-5.5
> CC(C(=O)N(C)CC#N)N1CC2=C(C1=O)C(c1ccccc1Cl)NC(=O)N2C (centres undefined)
  0.0	-0.4
> O=c1[nH]nc(SCc2cc(Cl)cc3c2OCOC3)n1CC1CCCO1 (centres undefined)
  3.1	7.9
> Cc1nn2c(-c3ccccc3)nc3ccccc3c2nc1=O
  6.3	4.2
> COc1cc(-c2[nH]nc3nccc(-c4cccc(N)c4)c23)cc(OC)c1OC
  6.7	4.2
> C=CCN1C(N2CCOCC2)=NN2C(=O)NC(c3ccc(OC)cc3)(C(F)(F)F)C(C#N)=C12 (centres undefined)
  2.4	8.2
> C=CCCC(O)CN(CCOC)Cc1c(C)nn(-c2ccccc2)c1Oc1ccc(Cl)cc1 (centres undefined)
  -5.9	-0.9
> O=C(NCCn1ncc2c(N3CCCCC3)ncnc21)c1cc(-c2ccccc2)on1
  3.1	1.7
> CCOCC(=O)NCC1CN(c2ccccc2)C(=O)O1 (centres undefined)
  0.1	7.2
> CN(C)CCNC(=O)c1cccc(CSc2nc(-c3ccccc3)cc(N3CCN(c4ccccc4Cl)CC3)n2)c1
  6.7	21.6
> O=c1c2nnn(-c3ccc(OC(F)(F)F)cc3)c2ncn1Cc1ccccc1
  -3.7	-9.1
> CCc1nc2ccc(C(=O)NCCc3c[nH]c4ccccc34)cn2c1N(C=O)CC
  -7.0	-11.8
> O=C(CCC1CCN(C(=O)C2CCCO2)CC1)Nc1ccc2c(c1)OCCO2 (centres undefined)
  -0.2	-2.5
> Cc1ccc(F)c(NC2CCCN(C(=O)c3ccccc3Cl)C2)c1 (centres undefined)
  4.4	16.2
> C/C(Cl)=C/Cc1c(C)[nH]c2ccc(C)cc2c1=O
  10.8	7.4
> Cc1nc(C(C)N(C)Cc2cnc(-c3cccs3)nc2)c(C)s1 (centres undefined)
  1.6	-0.5
> COc1ccc(C(=O)NNC(=O)c2ccc(S(=O)(=O)N3CCCCC3)cc2)cc1OC
  1.6	0.7
> COc1cccc(-c2cc(C(=O)N3CCN(C(=O)Nc4ccccc4C)CC3)c(C)n2-c2ccccc2)c1
  12.6	7.4
> Cc1noc(CN2CCCCC2c2nc3ccccc3o2)n1 (centres undefined)
  8.3	7.2
> COc1ccc(OC)c(N2CCCn3c2nc2c3c(=O)[nH]c(=O)n2C)c1
  -1.5	-5.2
> O=C(N1CC(c2ccccn2)C1)C12CC3CC(CC(C3)C1)C2
  -1.6	-2.6
> NC(=O)CSc1n[nH]c(-c2ccco2)n1
  -4.1	-5.1
> Cc1ccc(OCCn2c(=O)oc3ccc(C)cc32)cc1
  0.5	9.1

Brought forward from above: 2 entries, then new ones.
Results follow in this order: NPYLR7 ag	NPYLR7 ag max-min
> NC(=O)CSc1n[nH]c(-c2ccco2)n1
  -4.1	-5.1
> Cc1ccc(OCCn2c(=O)oc3ccc(C)cc32)cc1
  0.5	9.1
> COC(=O)c1cccc(OCC(=O)NC(c2cccs2)C(C)C)c1 (centres undefined)
  14.8	8.2
> N#Cc1ccc(CSCC(=O)N2CCCC(C(=O)N3CCOCC3)C2)cc1 (centres undefined)
  -1.3	-5.7
> Cc1cc(Nc2ccc(N)cc2)ncn1
  -3.7	-7.8
> Cc1ccsc1[C@@H]1CCN(Cc2cccn2-c2ncccn2)C[C@H]1O
  -3.4	-3.0
> c1ccc2c(NCC3CCN(C4CC4)C3)ncnc2c1 (centres undefined)
  6.3&-0.5	4.0&-2.0
> COc1cccc(-n2nnc3c(=O)n(Cc4ccc(Cl)cc4Cl)cnc32)c1
  8.9	8.3
> CCOCCOC1CCCN(C(=O)c2cccs2)C1 (centres undefined)
  -7.9	-3.5

Four entries from above, reformatted.
> Cc1ccsc1[C@@H]1CCN(Cc2cccn2-c2ncccn2)C[C@H]1O
  NPYLR7 ag = -3.4
  NPYLR7 ag max-min = -3.0

> COC(=O)c1cccc(OCC(=O)NC(c2cccs2)C(C)C)c1 (centres undefined)
  NPYLR7 ag = 14.8
  NPYLR7 ag max-min = 8.2

> c1ccc2c(NCC3CCN(C4CC4)C3)ncnc2c1 (centres undefined)
  NPYLR7 ag = 6.3&-0.5
  NPYLR7 ag max-min = 4.0&-2.0

> CCOCCOC1CCCN(C(=O)c2cccs2)C1 (centres undefined)
  NPYLR7 ag = -7.9
  NPYLR7 ag max-min = -3.5

An excerpt. The share of hits here may be higher or lower than overall.
